Compound activity: PubChem, several laboratories
CSC inhib: cancer stem cell viability inhibitors, primary screen, luminescence; cancer stem cell-like cells viability; inhibition, % at 7.5 µM; 1.1% of 300,000 active; AID 2717, 2010;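 active = mean at 75% or more and at least half the replicates too; inconclusive = mean and replicates disagree; tested in HMLE shEcad cells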;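 note: 0% = median of negative and 100% = median of positive control wells; the first replicate is given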
PABP FP inh: PABP poly(A) RNA binding inhibitors, primary screen, biochemical, fluorescence polarization, uHTS; AID 2014, 2009; inhibition, % at 35 µM; 1% of 290,000 active; Polyadenylate-binding protein 1 (Homo sapiens), P11940;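 active = 50% or more with normal probe brightness, or confirmed in later tests; inconclusive = above 50% with abnormal brightness, or retests that disagree; inactive = below 50% or failed in later tests; about a fifth of its hits are not listed in these tables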;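 note: calls also rest on retests at 20 µM and on dose response follow-up; controls were probe without protein and protein plus probe with vehicle; some compounds called inactive have numbers as strong as hits; many hits fall short of the cut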
Target sequence (P11940 whole entry, looked up): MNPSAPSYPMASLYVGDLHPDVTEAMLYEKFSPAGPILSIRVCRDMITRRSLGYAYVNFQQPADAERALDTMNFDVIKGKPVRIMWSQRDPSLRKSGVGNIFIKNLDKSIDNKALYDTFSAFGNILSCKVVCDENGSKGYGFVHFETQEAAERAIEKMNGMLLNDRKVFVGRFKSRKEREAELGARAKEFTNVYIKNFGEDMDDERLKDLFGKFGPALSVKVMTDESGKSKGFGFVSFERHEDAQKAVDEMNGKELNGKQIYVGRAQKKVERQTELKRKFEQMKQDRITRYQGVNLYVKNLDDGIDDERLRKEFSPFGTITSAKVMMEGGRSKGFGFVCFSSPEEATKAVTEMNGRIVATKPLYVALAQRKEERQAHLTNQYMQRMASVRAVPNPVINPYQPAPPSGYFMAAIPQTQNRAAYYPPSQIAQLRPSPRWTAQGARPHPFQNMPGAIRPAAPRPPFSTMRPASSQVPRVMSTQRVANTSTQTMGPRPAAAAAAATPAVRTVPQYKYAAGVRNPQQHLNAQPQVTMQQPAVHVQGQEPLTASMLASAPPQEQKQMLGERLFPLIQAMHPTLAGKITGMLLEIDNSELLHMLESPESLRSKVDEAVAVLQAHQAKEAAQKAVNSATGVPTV
HIV Env fusion: inhibitors of HIV-1 Env-driven cell-cell fusion, primary screen, HeLa-JRFL effector, CEM21 target cells, luciferase; inhibition, % at 12.3 µM; 1.1% of 360,000 active; AID 651610, 2012;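 active = mean replicate inhibition score of at least 50 and every replicate individually at or above 50; inconclusive = only one of the two criteria met; inactive = mean below 50 and not all replicates reaching 50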;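 note: 0% = plate neutral controls and 100% = maraviroc near 300 nM; one replicate is shown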
Rce1 inhib: yeast Rce1p protease inhibitors, primary screen, biochemical, fluorescence, cell-free homogeneous. yeast membranes, quenched prenylated peptide cleavage fluorescence. 0.27% of 290,000 active. calls only. CAAX prenyl protease 2 (Saccharomyces cerevisiae (strain ATCC 204508 / S288c)), Q03530;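 active = fall in fluorescence gain of 50% or more versus controls, with final raw signal at or below 3038400; inconclusive = same 50% fall but final raw signal above 3038400; inactive = fall in fluorescence gain under 50%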;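 note: plate controls were neutral control wells for no effect and wells lacking membranes for full effect; tested at 10 µM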
Target sequence (Q03530 whole entry, looked up): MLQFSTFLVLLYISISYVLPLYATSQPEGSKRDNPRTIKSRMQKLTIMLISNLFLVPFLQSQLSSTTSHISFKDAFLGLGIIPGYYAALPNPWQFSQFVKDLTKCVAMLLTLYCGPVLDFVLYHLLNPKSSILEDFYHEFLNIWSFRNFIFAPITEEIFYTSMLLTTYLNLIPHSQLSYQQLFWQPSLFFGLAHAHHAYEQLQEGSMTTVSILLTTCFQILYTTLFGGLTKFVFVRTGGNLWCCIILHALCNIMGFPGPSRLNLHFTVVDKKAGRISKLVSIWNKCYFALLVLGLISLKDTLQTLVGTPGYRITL
eIF4H FP inh: human eIF4H binding inhibitors, primary screen, translation initiation inhibitor project, biochemical, uHTS, fluorescence polarization | 0.94% of 290,000 active | inhibition, % at 35 µM | eIF4H fluorescence polarization binding assay | AID 2012, 2009 | Eukaryotic translation initiation factor 4H (Homo sapiens), Q15056;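 active = 50% or more with normal probe brightness, or confirmed in later tests; inconclusive = above 50% with abnormal brightness, or retests that disagree; inactive = below 50% or failed in later tests; about a fifth of its hits are not listed in these tables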;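 note: calls also rest on retests at 20 µM and on dose response follow-up; 0% = protein and probe with vehicle and 100% = probe without protein; strong numbers were not always called active; many hits fall short of the cut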
MT1-MMP act inh: blockers of MT1-MMP proenzyme processing, primary screen, HT1080 RFP-PRO-GFP cells, GFP/RFP fluorescence. Matrix metalloproteinase-14 (Homo sapiens), P50281. GFP/RFP ratio fluorescence, overnight; percent of plate control window, DMSO zero. GFP/RFP ratio change, % at 20 µM. 0.061% of 360,000 active. AID 651647, 2012;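 active = GFP/RFP ratio change of at least 30% with cell ATP level not reduced by more than half and red fluorescence within 50% of control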; note: strong numbers were not always called active
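Compound: 20 µM single dose, 1% DMSO / System: HT1080 RFP-PRO-GFP cells / Controls: DMSO and RFP-L50D-GFP cell wells / Read-out basis: GFP/RFP fluorescence ratio / Schedule: overnight compound exposure at 37 °C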
Yeast UUG start: modulators of yeast start codon fidelity, primary screen, whole organism, S. cerevisiae, single point, plate reader. S. cerevisiae UUG-firefly luciferase reporter, luminescence/redox ratio. activity score, % at 18.7 µM. 0.13% of 350,000 active. AID 602363, 2012;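 active = replicate mean at a twofold rise or more, about +100% in these data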;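 note: firefly luciferase made from a UUG start codon reports start codon fidelity; reporter light over untreated wells divided by growth signal over untreated wells; some hits fall short of that in this replicate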
eIF4H FP inh retest: further read-out of eIF4H FP inh, marked with its call; inhibition, %; compound at 20 µM; confirmation average;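 mean of two retest wells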
PABP FP inh retest: further read-out of PABP FP inh, marked with its call; inhibition, %; compound at 20 µM; confirmation repeats;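 mean of two retest wells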
MT1-MMP act inh RFP: further read-out of MT1-MMP act inh, marked with its call; RFP signal change, %; measured here: RFP expression control read;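 0 = vehicle wells; hits needed this value within 50% of zero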
* marks the source's active call; other numbers are inactive results; i = inactive; ? = inconclusive; nt = not tested or not shown.

SMILES	CSC inhib	PABP FP inh	HIV Env fusion	Rce1 inhib	eIF4H FP inh	MT1-MMP act inh	MT1-MMP act inh RFP	Yeast UUG start	others
O=S(=O)(NCc1cccnc1)c1ccc(Br)s1	2	-4	11	i	-4	-5	-5	-7
CCC(=O)Nc1nnc(S(=O)(=O)N(C)c2cc(C)cc(C)c2)s1	3	-3	17	i	2	1	0	-14
Cc1ccc(OCC(=O)Nc2cccnc2Cl)cc1C	-11	4	-16	i	0	-3	-1	nt
O=C(CSc1nnc(-c2cccs2)n1C1CC1)NC1CCS(=O)(=O)C1 (stereo unspecified)	-8	nt	nt	nt	nt	4	2	-16
CCCCCC(=O)N1CC2(CC)CN(C(=O)CCCCC)CC(CC)(C1)C2=O	-1	92*	30	i	99*	-7	-5	-4
O=c1c2ccccc2nc(-c2ccco2)n1Cc1ccccc1	-8	2	-51	i	8	-8	-4	-16
CC(=O)NCC(=O)NC(C(=O)Nc1ccc2c(c1)OCCO2)c1ccccc1 (stereo unspecified)	-16	-4	nt	i	-9	0	-3	-6
Cc1c(C(=O)OC(C)C)sc(NC(=O)C2CCCO2)c1C(=O)OC(C)C (stereo unspecified)	45	-5	nt	i	0	-5	-4	-9
Cc1cccc(N2CC(C(=O)NCc3ccco3)CC2=O)c1C (stereo unspecified)	13	nt	nt	nt	nt	-2	0	5
Cc1c(NC(=O)NC2CCCCC2)cccc1[N+](=O)[O-]	-14	-1	3	nt	-7	-1	-4	-23
COc1ccc(C(CNC(=O)C(C)Sc2ccccc2)N2CCOCC2)cc1 (stereo unspecified)	nt	nt	6	nt	nt	-1	4	-6
COc1ccc(NC(=O)C2=NNC(=O)CC2)cc1S(=O)(=O)N1CCCCC1	0	7	7	i	-7	-7	-5	-3
COc1cc(/C=C/CN2CCC(C(=O)NC(c3ccc(F)cc3)c3ccc4ccccc4n3)CC2)ccc1OC(C)=O (stereo unspecified)	nt	nt	21	nt	nt	27	-2	11
N#Cc1c(-c2ccccc2)nc(N2CCN(Cc3ccccc3)CC2)[nH]c1=O	2	1	-8	i	-8	2	4	0
COc1ccc(-n2nnc3c(=O)n(CC(=O)N4CCC(Cc5ccccc5)CC4)cnc32)cc1	-8	-19	-38	i	-1	6	-11	-12
Cc1cc(S(=O)(=O)Nc2ccc(C(=O)NCC(c3ccco3)N3CCCC3)cc2)ccc1F (stereo unspecified)	-27	7	57*	i	-15	-2	3	0
O=C(OCc1nc2ccsc2c(=O)[nH]1)c1cccc(S(=O)(=O)N2CCOCC2)c1	1	nt	-73	i	nt	2	3	-10
CCCCNC(=O)C1(C)CCN1C(=O)c1csnn1 (stereo unspecified)	nt	nt	-45	nt	nt	0	3	-13
COc1cccc(CNc2ccccn2)c1O	-5	3	-5	i	0	-3	-1	-13
Cc1cccc(Nc2cnn(C34CC5CC(CC(CC(=O)O)(C5)C3)C4)c(=O)c2Cl)c1	6	-3	nt	i	3	2	2	8
COc1ccc(/C=N/NC(=O)c2cccnc2)cc1CN1CCN(c2ccc(F)cc2)CC1	-2	7	15	i	-19	2	0	-17
COc1cccc(NC(=O)COc2cccnc2[N+](=O)[O-])c1	-14	nt	-15	nt	nt	nt	nt	-9
COc1ccc(/C=C2\Sc3ccc(C(=O)N4CCc5ccccc5C4)cc3N(C)C2=O)cc1	3	-12	nt	i	-17	nt	nt	nt
Cc1ccc2nc(-c3ccc(NC(=O)CN4C(=O)NC(C)(c5ccc(OC(F)F)cc5)C4=O)cc3)sc2c1 (stereo unspecified)	6	62	-59	?	-3	7	2	nt	eIF4H FP inh retest=29;PABP FP inh retest=23
O=C(O)CCCN=Cc1c(O)c2ccccc2oc1=O	0	5	16	i	7	-4	-1	-10
COc1cc(OC)c(C(=O)Nc2ccc(S(=O)(=O)N3CCCCC3)cc2)cc1OC	nt	nt	-4	i	nt	2	-5	-9
Cc1ccccc1OCc1nc(-c2ccc(NC(=O)c3ccc4c(c3)OCO4)cc2)no1	28	1	nt	i	3	4	-5	-17
CCOc1ccccc1-c1nc(-c2ccc(C)nc2OC)no1	-8	-11	-230	i	-1	3	5	-11
CCOC(=O)c1[nH]ncc1CN1CCCC(C(=O)c2ccc(OC)c(OC)c2)C1 (stereo unspecified)	-4	-1	-1	i	3	5	3	-8
Cc1nnc(N/N=C/c2cc(C)n(-c3ccc(F)cc3)c2C)n1N	-8	15	nt	i	3	4	0	nt
CCN1CCN(C(CNS(=O)(=O)c2cccs2)c2cccnc2)CC1 (stereo unspecified)	-2	-7	-9	i	-7	nt	nt	-13
COc1ccc(N=C/C=C2/C=C(c3ccccc3)OC(C)(C)O2)cc1	8	-2	14	i	-3	-1	4	-16
Cc1ccc(OCc2cc(C(=O)N3CCc4[nH]cnc4C3c3ccccn3)no2)cc1C (stereo unspecified)	-8	-1	9	i	1	0	1	-28
c1ccc2c(-c3nnc4n3CCCCC4)c[nH]c2c1	2	2	nt	i	6	0	-2	-13
CC(C)N1C(=S)SC2CS(=O)(=O)C=C21 (stereo unspecified)	-10	5	nt	i	-2	4	0	-28
c1ccc(C(c2nnnn2C2CCCC2)N2CCCCCC2)nc1 (stereo unspecified)	nt	32	-7	i	4	1	4	-2
Cc1nc(NC(=O)c2ccc(-c3cc4ccccc4oc3=O)cc2)ccc1Br	12	-16	-12	i	-6	2	2	nt
CNC(=O)C12N=CNN=C1N(C)C(=O)N2C (stereo unspecified)	-5	-5	10	i	-6	1	2	-7
O=C(Nc1ccncc1)Nc1cccc(C(F)(F)F)c1	-9	-5	-4	i	-1	-8	-10	-21
CCOC(=O)Cc1cc(=O)[nH]c(=O)[nH]1	-1	-9	-4	i	16	2	8	nt
CCOc1ccc(NC(=O)COC(=O)c2cccnc2)cc1	-3	-10	-11	i	-2	-5	-1	-35
CCOC(=O)C1C(c2cc(OC)c(O)c(OC)c2)NC(=S)NC1(O)C(F)(F)F (stereo unspecified)	3	7	-18	i	-10	-3	1	-30
O=C(O)CCN1C(=O)C2C3CC(C2C1=O)C1C(c2ccccc2)c2sc(=O)[nH]c2SC31 (stereo unspecified)	-2	5	9	i	4	-2	4	nt
COc1ccc(N2CCN(S(=O)(=O)c3ccc4c(c3)NC(=O)CS4)CC2)cc1	3	-2	1	i	-11	1	-11	-19
Cc1c(NC(=O)CSc2n[nH]c(=O)n2-c2ccccc2)c(=O)n(-c2ccccc2)n1C	-6	4	18	i	-2	-2	0	nt
CC(=O)CCC(=O)N1CCCC(CNC(=O)c2ccc(-c3ccccc3)cc2)C1 (stereo unspecified)	-2	12	-10	i	-4	7	-3	nt
Cc1ccccc1CNC(=O)CCCn1ncn2c(cc3occc32)c1=O	-7	-3	1	i	-9	0	9	-2
NS(=O)(=O)c1cc2c(cc1Cl)NC(CSCc1ccccc1)=NS2(=O)=O	-8	-4	38	i	4	2	7	7
Cc1cccc(S(=O)(=O)NCC2CCCO2)c1 (stereo unspecified)	-16	-7	nt	i	-4	-2	0	-20
COc1ccc(Cl)cc1S(=O)(=O)NC(C)C(=O)NCc1ccncc1 (stereo unspecified)	nt	-9	7	i	2	0	1	-4
(next part)
SMILES	CSC inhib	PABP FP inh	HIV Env fusion	Rce1 inhib	eIF4H FP inh	MT1-MMP act inh	MT1-MMP act inh RFP	Yeast UUG start	others
O=C(NCC1CCCO1)c1csc2c1CCCCC2 (stereo unspecified)	3	4	nt	i	2	0	2	-15
CCN(C(=O)c1cc2c(=O)[nH]c3ccc(C)cc3c2s1)c1ccccc1F	-11	3	-58	i	-13	4	2	nt
CC(C)N(CC(N)=O)c1ccc(S(=O)(=O)N2CCCC2)cn1	nt	nt	-10	nt	nt	2	4	-10
CC(C)OC(=O)C1C(=O)CC(C)(O)C(C(=O)OC(C)C)C1c1cccc([N+](=O)[O-])c1 (stereo unspecified)	-2	7	14	i	-2	-3	-3	nt
CCCCn1c(CN2CCN(c3ccc(F)cc3)CC2)nc2c1c(=O)n(C)c(=O)n2C	-6	-3	-14	i	4	2	-29	-9
COc1ccc(OCCn2cc(C=O)c3ccccc32)cc1	0	-6	19	i	2	-1	-15	3
Cc1c(-c2ccc(Cl)cc2Cl)nc2ccccc2c1C(=O)NCCN1CCOCC1	-6	-4	nt	i	-9	-5	-1	-4
COc1ccc(/C=N/NC(=O)c2ccc(Br)cc2)cc1CN1CCOCC1	12	-6	-3	i	5	6	2	-19
O=C(O)CCC(=O)NNC(=O)c1cccc(Cl)c1	-4	8	1	i	-2	8	7	nt
Oc1ccc(Cl)cc1-c1cc(-c2cccc(Br)c2)n[nH]1	90*	-6	46	i	0	4	-8	-9
CC(=O)NC12CC3CC(C1)CC(C(=O)Nc1nccs1)(C3)C2	-3	-3	nt	i	-6	-4	1	-11
O=C(c1cc(-c2ccc(Cl)cc2)on1)N1CCN(c2ccc(F)cc2)CC1	0	26	-10	i	-5	0	0	-3
O=S1(=O)N=C(Nc2nc3c(s2)CCCC3)c2ccccc21	-3	7	nt	nt	16	4	-1	-12
Cc1ccc(N2C(=N)SCC2=O)cc1Cl	0	-2	-41	i	-3	-2	1	-15
COCCCN1C(=O)C(=O)/C(=C(/O)c2ccc(OC)cc2)C1c1ccc(O)c(OC)c1 (stereo unspecified)	6	1	nt	i	1	3	6	nt
CCc1cc(CNC(=O)c2cccc(OC3CCN(S(C)(=O)=O)CC3)c2)on1	-1	-11	-4	i	-3	-1	-21	-12
COC(=O)c1ccc2nc(NC(=O)CCS(=O)(=O)c3ccccc3)sc2c1	35	8	-45	i	2	-4	3	2
COc1ccccc1-n1c(SCC(N)=O)nnc1-c1ccccc1	-6	-8	-74	i	-7	0	5	-28
COc1ccc(NC(=O)CSc2nnc(CNC(=O)c3ccco3)o2)cc1	-2	16	4	i	0	1	-2	-4
CCOc1ccc(NC(=O)c2ccccc2NC(=O)CN(C)CC(=O)Nc2ccc(C)cc2)cc1	-2	8	nt	i	-2	1	-9	-15
C=C1[C@@H](O)[C@H](Cc2ccccc2)N(Cc2ccccc2Br)S1(=O)=O	nt	nt	6	nt	nt	-4	-13	-11
O=C1c2ccc(-c3nc4ccccc4o3)cc2C(=O)N1Cc1cccnc1	-18	nt	-4	i	nt	nt	nt	nt

Quoted from the results shown (3 entries):
SMILES	CSC inhib	PABP FP inh	HIV Env fusion	Rce1 inhib	eIF4H FP inh	MT1-MMP act inh	MT1-MMP act inh RFP	Yeast UUG start	others
CC(=O)NC12CC3CC(C1)CC(C(=O)Nc1nccs1)(C3)C2	-3	-3	nt	i	-6	-4	1	-11
O=C(c1cc(-c2ccc(Cl)cc2)on1)N1CCN(c2ccc(F)cc2)CC1	0	26	-10	i	-5	0	0	-3
O=S1(=O)N=C(Nc2nc3c(s2)CCCC3)c2ccccc21	-3	7	nt	nt	16	4	-1	-12
